# LASV entry inh = qHTS for Inhibitors of binding or entry into cells for Lassa Virus; Lassa virus pseudotype entry inhibition, cell reporter; control for the full effect not named in the record; 1.2% of 300,000 active; Potency, µM (titrated, usually from 37.9 µM), for inactives: top-dose activity change, negative = inhibition, actives largely listed as inhibitors; active means well fitted inhibition curve with a large enough effect; inconclusive means small, poorly fitted or top-dose-only effect, or effect the other way; inactive means flat fitted curve, though single readings scatter; tested in HEK293 cells; further: on the % scale 0 is the no-effect control and ±100 the full control effect; nearly all actives have a fitted effect of over 50% in size; luciferase read-out
# SARS PLpro yeast = qHTS of Yeast-based Assay for SARS-CoV PLP; Potency, µM (series often up to 32.9 µM), inactives show top-dose activity, positive = growth rescue; 0.19% of 330,000 active; AID 485353, 2010; S. cerevisiae expressing SARS-CoV PLpro, growth rescue; control for the full effect not named in the record; further: 0% is about no effect; nearly all actives have a fitted effect of over 55% in size; growth read by luminescence after 48 h
# NS1 inh = qHTS Assay for Inhibitors of Influenza NS1 Protein Function; S. cerevisiae slowed by influenza A NS1, growth recovery by OD600; Potency, µM (doses to about 46.1 µM), for the others: at the highest dose activity, positive = more growth; 0.4% of 270,000 active; AID 2326, 2010; further: actives are rising curves; nearly all actives have a fitted effect of over 50% in size
#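 Recovery from NS1-induced slow growth read by OD600 in budding yeast switched to galactose assay medium (pH 6.0, -URA) at 1:100 dilution. Compound 23 nl per well; the matching strain lacking NS1 serves as control.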
# Marburg entry inh = qHTS for inhibitors of binding or entry into cells for Marburg Virus; Marburg virus pseudotyped entry inhibition, cell reporter; control for the full effect not named in the record; about a third of the inactives were read at about 46 µM; Potency, µM (highest dose often 37.8 µM), for inactives: at the highest dose activity change, negative = inhibition, actives largely listed as inhibitors; 1.8% of 300,000 active; AID 540276, 2011; active = well fitted inhibition curve with a large enough effect; inconclusive = small, poorly fitted or top-dose-only effect, or effect the other way; inactive = flat fitted curve, though single readings scatter; tested in HEK293 cells; about a fifth of its hits are not listed in these tables; further: on the % scale 0 is the no-effect control and ±100 the full control effect; luciferase read-out
# RE007 growth inh = qHTS Assay for Inhibitors of the HIV-1 protein Vpr. Potency, µM (top dose mostly 92.2 µM), for the others: at the highest dose activity change, negative = less growth. S. pombe RE007 Vpr strain, BacTiter-Glo ATP luminescence, 24 h; control for the full effect not named in the record. 0.21% of 360,000 active. AID 651644, 2012; active = well fitted falling curve with a large enough effect; inconclusive = small, poorly fitted or top-dose-only effect; inactive = no such curve, though single readings can be large or run the other way;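 further: on the % scale 0 is the no-effect control and ±100 the full control effect; nearly all actives have a fitted effect of over 50% in size; the assay follows cell death caused by Vpr and the record does not say whether a fall means rescue or toxicity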
#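 Fission yeast strain RE007, carrying one chromosomally integrated HIV-1 vpr copy, was seeded at OD 0.01 in PMG+AL medium with 23 nL pinned compound. After 24 h at 30 °C and 99% humidity, viability was read by BacTiter-Glo luminescence.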
# Cruzain noTriton = qHTS Assay for Promiscuous and Specific Inhibitors of Cruzain (without detergent) | Potency, µM, without a hit: max response, negative = inhibition, actives largely listed as inhibitors | Cruzipain (Trypanosoma cruzi), P25779 | purified cruzain, Z-FR-AMC fluorescence, no detergent | 2.3% of 200,000 active | AID 1476, 2009; active means well fitted curve in the direction sought with a large enough effect; inconclusive means small, poorly fitted or top-dose-only effect, or another doubt; inactive means no such curve, though single readings can be large; an effect the other way counts as inactive or inconclusive;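 further: plate controls were enzyme without inhibitor for no effect and buffer without enzyme for full effect; nearly all actives have a fitted effect of over 40% in size; top concentration of the series not given in the record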
# Target sequence (P25779 123-467 limits assumed): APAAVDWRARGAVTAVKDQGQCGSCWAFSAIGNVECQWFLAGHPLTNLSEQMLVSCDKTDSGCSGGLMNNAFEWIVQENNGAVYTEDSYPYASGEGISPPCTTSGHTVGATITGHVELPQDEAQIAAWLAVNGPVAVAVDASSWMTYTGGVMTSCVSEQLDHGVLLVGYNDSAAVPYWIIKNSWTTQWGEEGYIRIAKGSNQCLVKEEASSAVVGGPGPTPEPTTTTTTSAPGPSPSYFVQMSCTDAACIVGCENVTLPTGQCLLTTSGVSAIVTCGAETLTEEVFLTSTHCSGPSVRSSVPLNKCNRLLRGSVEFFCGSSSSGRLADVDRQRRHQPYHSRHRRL
#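 Purified cruzain at 1.5 nM, pre-incubated 15 min with compound at room temperature in 100 mM sodium acetate pH 5.5, 5 mM DTT, 0.00005% Triton X-100. Reaction started with 2 uM Z-FR-AMC; AMC fluorescence increase over 60 s gives rate.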
# StopGo reporter = High Throughput Screening for Foot and Mouth Disease Virus Antivirals; 1.2% of 410,000 active; Potency, µM (top dose mostly 57.9 µM), for inactives: at the highest dose signal change, negative = less light; AID 1159524, 2015; human cells with a luciferase reporter of 2A StopGo recoding; control for the full effect not named in the record; active = well fitted falling curve with a large enough effect; inconclusive = small, poorly fitted or top-dose-only effect; inactive = no such curve, though single readings can be large or run the other way; tested in HEK293T cells; further: on the % scale 0 is the no-effect control and ±100 the full control effect; nearly all actives have a fitted effect of over 45% in size; luciferase light after 4 h
# Cruzain Triton = qHTS Assay for Promiscuous and Specific Inhibitors of Cruzain (with detergent). Potency, µM, for inactives: max response, negative = inhibition, most hits filed as inhibitors. Cruzipain (Trypanosoma cruzi), P25779. 0.43% of 200,000 active. purified cruzain, Z-FR-AMC fluorescence, 0.01% Triton; active means well fitted curve in the direction sought with a large enough effect; inconclusive means small, poorly fitted or top-dose-only effect, or another doubt; inactive means no such curve, though single readings can be large; an effect the other way counts as inactive or inconclusive;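 further: plate controls were neutral wells for no effect and buffer without enzyme for full effect; nearly all actives have a fitted effect of over 40% in size; top concentration of the series not given in the record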
#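 Detergent-containing run (0.01% Triton X-100) in acetate buffer pH 5.5 with 5 mM DTT: enzyme at 1.5 nM final, 15 min compound preincubation at room temperature, then 2 uM Z-FR-AMC substrate. Activity taken as 60 s fluorescence increase at 360/450 nm.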
# * = called active by the depositor; u = inconclusive; x = not tested or not shown; & = joins results of further samples; [ ] = another dose, or the depositor's remark. Unless noted, the call rests on the fitted dose curve; in most records, active means well fitted rising curve with a large enough effect; inconclusive means small, poorly fitted or top-dose-only effect; inactive means no such curve, though single readings can be large or run the other way. Potency means the concentration at half of the fitted maximal effect. An unsorted share of the library. Share with any hit: about 4.5%.
SMILES	LASV entry inh	SARS PLpro yeast	NS1 inh	Marburg entry inh	RE007 growth inh	Cruzain noTriton	StopGo reporter	Cruzain Triton
O=c1[nH]c(O)c(C=NCCc2ccccc2)c(=O)[nH]1	x	0%	0%	x	17%	x	9%	x
COc1ccc(C(C)C)cc1S(=O)(=O)Nc1ccc(Cl)cn1	-22%	1%	-1%	u	-4%	0%	109%[activator]	-3.3%
COc1cccc(CNC(=O)CCNS(=O)(=O)c2ccc3c(c2)oc(=O)n3C)c1	-5%[46.1 µM]	5%	10%	6%&6%[46.1 µM]	6%	-2%	0%&1%	-0.2%
COc1cccc(CNCc2ccc(C(=O)O)cc2)c1OC	u	0%	-3%	2%	5%	x	-9%	x
CCN1CCN(c2ccc(S(=O)(=O)N3CCCCC3)cc2NC(=O)COc2ccc(Cl)cc2)CC1	-6%	x	x	-18%	-14%	x	5%	x
CCC(C)C(NC(N)=O)C(=O)Nc1ccc(C(=O)OC)cc1 (configuration not stated)	-3%[46.1 µM]	-4%	-1%	5%[46.1 µM]	1%	x	5%	x
O=C(O)C(=O)/C(=C\c1ccccc1)c1ccc2ccccc2n1	0%	10%	5%	3%	-3%	2%	55%[activator]	1.8%
O=C(CCNS(=O)(=O)c1ccc2c(c1)CCN2C(=O)C1CC1)Nc1ccc(OC(F)(F)F)cc1	u	x	x	x	x	-4%	-2%	-2.3%
O=C(Nc1cccc(Cl)c1)c1ccccc1NC(=O)C1CCCCC1C(=O)O (configuration not stated)	7%	2%	4%	4%	2%	x	-7%	x
NNC(=S)NC1CC2CC1C1C=CCC21 (configuration not stated)	x	8%	4%	x	17%	x	4%	x
CCN(CC)S(=O)(=O)c1ccc(NS(=O)(=O)c2ccc(OC)c([N+](=O)[O-])c2)cc1	10%	22%	8%	15%	17%	1%	5%	-4.8%
O=C(COc1ccc(F)cc1)Nc1ccccc1N1CCOCC1	-3%	0%	x	-8%	-24%	x	-22%	x
COc1ccc(C(=O)C/C(=C\C(=O)c2ccc(C)cc2)c2ccccc2)cc1	u	-5%	13%	u	-3%	-2%	-15%	11%
O=S1(=O)N=C(Nc2ccc(N3CCOCC3)cc2)c2ccccc21	18%	6%	2%	-12%	13%	-19%	18%	-4.0%
CCN(CC)C(=S)NC(=O)c1ccc(Cl)cc1Cl	24%	15%[6.58 µM]	-92%	u	-12%	-2%	-3%	2.7%
COCCCNC(=O)Cn1c(=O)oc2cc(S(=O)(=O)N3CC(C)CC(C)C3)ccc21 (configuration not stated)	-2%[46.1 µM]	-1%	-11%	24%[46.1 µM]	4%	x	14%	x
CCOc1cccc(NC(=O)c2ccc(S(=O)(=O)N(C)C)cc2)c1	x	-2%	-34%	x	1%	-8%	-26%	-3.6%
O=c1c(-c2ccc(Cl)cc2)c(C(F)(F)F)oc2c(CN3CCCCC3)c(O)ccc12	-2%[46.1 µM]	x	x	6%[46.1 µM]	x	9%	-15%	3.7%
CCS(=O)(=O)c1ccc(C(=O)Nc2ccccc2)c(Cl)c1Cl	3%	-10%	-25%	u	16%	2%	u	4.5%
O=C1CC(c2ccccc2)Sc2ccccc2N1 (configuration not stated)	19%	-2%	-10%	u	-1%[3.69 µM]	1%	59%[activator]	0.6%
O=C(Cn1c2ncccc2c(=O)n1-c1ccccc1)Nc1cccc(C(F)(F)F)c1	-5%[46.1 µM]	x	x	x	x	u	-13%	-13%
Cc1cccc(NC(=O)c2cccc(S(=O)(=O)NCc3ccccc3)c2)n1	14%	2%	x	-11%	1%	x	59%[activator]	x
COc1ccc(C2C(C(=O)Nc3ccccc3OC)=C(C)Nc3nnnn32)c(OC)c1 (configuration not stated)	-2%	-5%	-6%	17%	2%	15%	-11%	4.9%
COCCNc1nnc(SCC(=O)N(C)c2c(N)n(Cc3ccccc3)c(=O)[nH]c2=O)s1	10%	x	x	0%	-14%	x	0%	x
OCCC1CN(Cc2cccn2-c2ncccn2)CCN1C1CCCC1 (configuration not stated)	x	1%	5%	x	-6%	x	-14%	x
CCCn1c(CCC(=O)Nc2ccc(C)c(Cl)c2)nc2cccnc21	2%[46.1 µM]	x	x	2%[46.1 µM]	x	-4%	-21%	-6.3%
Cc1ccc(-c2noc(-c3ccccc3C(=O)N3CCOCC3)n2)cc1	-4%	4%	-7%	-1%	14%	8%	39%[activator]	-3.4%
Cc1ccc2c(c1)c(=O)c(C(=O)c1ccncc1)cn2CC(=O)Nc1c(C)cccc1C	2%[46.1 µM]	x	x	x	x	14%	u	-0.8%
Cc1ccccc1Cn1nc(C)c(NC(=O)/C=C/c2cnn(C)c2C)c1C	-15%	21%	-4%	-18%	13%	-8%	-24%	-4.7%
CCOc1cc(/C=N/NC(=O)COc2ccc(C)cc2)ccc1OC(=O)c1cccs1	u	-7%	29%	16%	1%	u	x	1.1%
O=C(CN1CCC(NC(=O)c2cccc(F)c2)CC1)NCc1ccccc1F	2%	-6%	-4%	3%	-5%	1%	-3%	-2.1%
O=C(/C=C/c1ccc(OC(F)F)cc1)OCC(=O)N1CCc2ccccc21	u	-7%	x	-13%	-9%	x	-7%	x
CCC(Oc1ccccc1)C(=O)NC1CCSC1=O (configuration not stated)	9%	-1%	-3%	8%[46.1 µM]	-12%	x	15%	x
COc1cccc(NC(=O)CCS(=O)(=O)c2ccc(Br)cc2)c1	x	1%	-3%	x	2%	x	5%	x
Cc1ccc(-c2nnc(SCCC(=O)N3CCOCC3)o2)cc1	u	1%	x	-11%[46.1 µM]	3%	x	1%	x
CCN(CC)S(=O)(=O)c1ccc(NC2c3ncccc3C(=O)N2Cc2ccccc2)cc1 (configuration not stated)	-27%	-2%	-2%	10%	12%	1%	11%	-8.7%
CCOCCCNC(=O)C1(O)c2ccccc2NC(=O)N1c1ccc(Cl)cc1 (configuration not stated)	x	9%	-3%	x	2%	x	31%[activator]	x
Cc1ccc(N2C(=O)/C(=C/c3ccc(CN(CCC#N)S(C)(=O)=O)o3)C(=O)NC2=S)cc1	2%	9%	3%	26%	1%	u	-8%	-21%
C/C(=N\NC(=O)CSc1nnc(C)s1)c1ccc(O)cc1	6%	-5%	9%	7%	-21%	-1%	-15%	-3.4%
CCCCNC(=S)N(C)/N=C/c1ccccc1F	9%	22%	-11%	-26%	-14%	0%	2%	-7.3%
CC1Cc2ccccc2N1C(=O)COC(=O)c1ccccc1NCCO (configuration not stated)	-12%	-1%	x	7%	-22%	x	-10%	x
COc1ccc(/C=C(/NC(=O)c2ccccc2)C(=O)NCc2ccncc2)cc1	2%[46.1 µM]	2%	-8%	8%[46.1 µM]	11%	x	19%	x
CN(c1ccc(C(=O)Nc2ccc(S(=O)(=O)N3CCCC3)cc2)cc1)S(C)(=O)=O	u	0%	-5%	u	-4%	x	u	x
CCC(C)C(NC(=O)C1CCC(C)CC1)C(=O)Nc1cc(OC)ccc1OC (configuration not stated)	-18%	3%	12%	-7%	-5%	15%	3%	-2.9%
CC1(c2cccs2)CC(c2cccs2)=C(C#N)C(=O)N1 (configuration not stated)	16%	-8%	-4%	0%	-2%	-7%	-25%	-1.5%
Cc1c(C(N)=O)c(N)c(C(=O)c2ccccc2)n1-c1ccccc1	-5%	-2%	-1%	9%	6%	6%	-20%	-13%
Cn1c(CN2CCCC(C(=O)c3ccc4c(c3)OCO4)C2)nc2ccccc21 (configuration not stated)	1%[46.1 µM]	0%	4%	u	-6%	x	-15%	x
c1cc2c(cc1Nc1nc(-c3ccc4c(c3)OCO4)cs1)OCCO2	u	1%	7.1µM*	14%&14%	27%	10µM*	16%	0.4%
CC(=O)c1ccc(N(C(=O)CNC(=O)c2ccco2)C(C(=O)NC2CCCC2)c2ccco2)cc1 (configuration not stated)	9%	7%	2%	20%[46.1 µM]	-11%	x	-8%	x
Cc1nc(NC(=O)c2cc(-n3cnnc3)ccc2Cl)ccc1Br	-9%	-2%	-4%	-17%	-1%	-8%	-23%	-3.0%

# The list continues:
SMILES	LASV entry inh	SARS PLpro yeast	NS1 inh	Marburg entry inh	RE007 growth inh	Cruzain noTriton	StopGo reporter	Cruzain Triton
CS(=O)(=O)N(C(=O)NC(=O)NC1CCS(=O)(=O)C1)C1CCCCC1 (configuration not stated)	23%	-1%	10%	17%	4%	-11%	x	3.7%
O=C(CCl)Nc1sccc1C(=O)c1ccccc1	9%	x	x	9%[46.1 µM]	9%	x	20µM*	x
CC(C)(Oc1ccc(Br)cc1)C(=O)N1CCc2ccccc21	-1%	-4%	-3%	-1%	3%	6%	-17%	-1.6%
COc1cccc(/C=C2\C=C(c3ccc(C)cc3)OC2=O)c1OC(C)=O	13%	-3%	-14%	18%[46.1 µM]	-4%	x	11%	x
Cc1ccc(CC2CC(=O)N(c3ccc(C)cc3)C2=O)cc1 (configuration not stated)	-4%[46.1 µM]	-1%	1%	-5%[46.1 µM]	13%	x	-12%	x
CCN(C(=O)CSc1nnc(COc2ccccc2F)n1N)C1CCS(=O)(=O)C1 (configuration not stated)	14%	3%	u	-4%	25%	x	-1%	x
Cc1csc(NC(=O)CSc2nnc(C)c(=O)n2N)n1	-1%[46.1 µM]	1%	4%	18%[46.1 µM]	-6%	x	-2%	x
COc1ccccc1OCc1nnc(SCC(=O)NCc2ccco2)n1Cc1ccco1	-13%	6%	8%	14%	3%	u	-12%	0.3%
COc1ccc(CC(NC(C)=O)C(=O)NC2CCN(c3c4c(nc5ncnn35)CCC4)CC2)cc1 (configuration not stated)	2%	-6%	-4%	-4%	7%	-19%	-9%	-15%

# From PubChem
